LASV entry inh: qHTS for Inhibitors of binding or entry into cells for Lassa Virus. Lassa virus pseudotype entry inhibition, cell reporter; control for the full effect not named in the record. Potency, µM (series often up to 37.9 µM), for inactives: at the top dose activity change, negative = inhibition, hits mostly inhibitors. 300,000 tested, 1.2% active. AID 540256, 2011; active means well fitted inhibition curve with a large enough effect; inconclusive means small, poorly fitted or top-dose-only effect, or effect the other way; inactive means flat fitted curve, though single readings scatter; tested in HEK293 cells; further: on the % scale 0 is the no-effect control and ±100 the full control effect; nearly all actives have a fitted effect of over 50% in size; luciferase read-out
SARS PLpro yeast: qHTS of Yeast-based Assay for SARS-CoV PLP; S. cerevisiae expressing SARS-CoV PLpro, growth rescue; control for the full effect not named in the record; Potency, µM (titrated, usually from 32.9 µM), for inactives: at the highest dose activity, positive = growth rescue; 330,000 tested, 0.19% active; AID 485353, 2010; active means well fitted rising curve with a large enough effect; inconclusive means small, poorly fitted or top-dose-only effect; inactive means no such curve, though single readings can be large or run the other way; further: 0% is about no effect; nearly all actives have a fitted effect of over 55% in size; growth read by luminescence after 48 h
2A StopGo: High Throughput Screening for Foot and Mouth Disease Virus Antivirals. human cells with a luciferase reporter of 2A StopGo recoding; control for the full effect not named in the record. Potency, µM (highest dose often 57.9 µM), without a hit: top-dose signal change, negative = less light. 410,000 tested, 1.2% active. AID 1159524, 2015; active = well fitted falling curve with a large enough effect; inconclusive = small, poorly fitted or top-dose-only effect; inactive = no such curve, though single readings can be large or run the other way; tested in HEK293T cells; further: on the % scale 0 is the no-effect control and ±100 the full control effect; nearly all actives have a fitted effect of over 45% in size; luciferase light after 4 h
MARV entry inh: qHTS for inhibitors of binding or entry into cells for Marburg Virus | Marburg virus pseudotyped entry inhibition, cell reporter; control for the full effect not named in the record; about a third of the inactives were read at about 46 µM | Potency, µM (highest dose often 37.8 µM), for the others: at the highest dose activity change, negative = inhibition, usual class: inhibitors | 300,000 tested, 1.8% active; active = well fitted inhibition curve with a large enough effect; inconclusive = small, poorly fitted or top-dose-only effect, or effect the other way; inactive = flat fitted curve, though single readings scatter; tested in HEK293 cells; about a fifth of its hits are not listed in these tables; further: on the % scale 0 is the no-effect control and ±100 the full control effect; luciferase read-out
RE007 growth inh: qHTS Assay for Inhibitors of the HIV-1 protein Vpr. Potency, µM (top dose mostly 92.2 µM), for the others: at the top dose activity change, negative = less growth. 360,000 tested, 0.21% active. S. pombe RE007 Vpr strain, BacTiter-Glo ATP luminescence, 24 h; control for the full effect not named in the record; active = well fitted falling curve with a large enough effect; inconclusive = small, poorly fitted or top-dose-only effect; inactive = no such curve, though single readings can be large or run the other way;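 further: on the % scale 0 is the no-effect control and ±100 the full control effect; nearly all actives have a fitted effect of over 50% in size; the assay follows cell death caused by Vpr and the record does not say whether a fall means rescue or toxicity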
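Fission yeast strain RE007, carrying one chromosomally integrated HIV-1 vpr copy, was seeded at OD 0.01 in PMG+AL medium with 23 nL pinned compound. After 24 h at 30 °C and 99% humidity, viability was read by BacTiter-Glo luminescence.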
Cruzain inh noDet: qHTS Assay for Promiscuous and Specific Inhibitors of Cruzain (without detergent) | Cruzipain (Trypanosoma cruzi), P25779 | purified cruzain, Z-FR-AMC fluorescence, no detergent | Potency, µM, for the others: max response, negative = inhibition, most hits filed as inhibitors | 200,000 tested, 2.3% active;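 further: plate controls were enzyme without inhibitor for no effect and buffer without enzyme for full effect; nearly all actives have a fitted effect of over 40% in size; top concentration of the series not given in the record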
Target sequence (P25779 123-467 limits assumed): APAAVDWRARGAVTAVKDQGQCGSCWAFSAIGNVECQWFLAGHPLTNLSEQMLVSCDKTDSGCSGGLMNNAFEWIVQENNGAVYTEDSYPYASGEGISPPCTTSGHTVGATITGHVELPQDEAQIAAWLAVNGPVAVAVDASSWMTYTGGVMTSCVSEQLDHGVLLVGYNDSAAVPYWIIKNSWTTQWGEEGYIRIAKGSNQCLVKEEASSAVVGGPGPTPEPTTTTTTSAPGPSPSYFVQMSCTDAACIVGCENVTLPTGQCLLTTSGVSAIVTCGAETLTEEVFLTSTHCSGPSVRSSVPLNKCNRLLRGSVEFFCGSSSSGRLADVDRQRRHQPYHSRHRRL
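Detergent-free condition (0.00005% Triton X-100) in acetate buffer pH 5.5 with DTT. 1.5 nM enzyme and compound were pre-mixed 15 min, then 2 uM Z-FR-AMC substrate added; reaction progress from fluorescence change between first and third reads (60 s).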
NS1 function inh: qHTS Assay for Inhibitors of Influenza NS1 Protein Function; S. cerevisiae slowed by influenza A NS1, growth recovery by OD600; Potency, µM (titrated, usually from 46.1 µM), without a hit: at the top dose activity, positive = more growth; 270,000 tested, 0.4% active; AID 2326, 2010; active means well fitted rising curve with a large enough effect; inconclusive means small, poorly fitted or top-dose-only effect; inactive means no such curve, though single readings can be large or run the other way; further: nearly all actives have a fitted effect of over 50% in size
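OD600 was taken as the measure of yeast growth restored by compound in an NS1-expressing S. cerevisiae strain. Cells had been washed out of glucose medium and diluted 1:100 into galactose -URA medium, pH 6.0.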
Cruzain Triton: qHTS Assay for Promiscuous and Specific Inhibitors of Cruzain (with detergent); Cruzipain (Trypanosoma cruzi), P25779; purified cruzain, Z-FR-AMC fluorescence, 0.01% Triton; Potency, µM, for the others: max response, negative = inhibition, usual class: inhibitors; 200,000 tested, 0.43% active; AID 1478, 2009;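 further: plate controls were neutral wells for no effect and buffer without enzyme for full effect; nearly all actives have a fitted effect of over 40% in size; top concentration of the series not given in the record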
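Sodium acetate buffer (100 mM, pH 5.5) containing 5 mM DTT and 0.01% Triton X-100 hosted 1.5 nM cruzain and test compound for 15 min at room temperature. Cleavage of 2 uM Z-FR-AMC was then tracked by fluorescence.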
Starred values were filed as active, the others as inactive; ? = inconclusive; nt = not tested or not shown; & = joins results of further samples; [ ] = another dose, or the depositor's remark. Unless noted, the call rests on the fitted dose curve; in most records, active means well fitted curve in the direction sought with a large enough effect; inconclusive means small, poorly fitted or top-dose-only effect, or another doubt; inactive means no such curve, though single readings can be large; an effect the other way counts as inactive or inconclusive. Potency means the concentration at half of the fitted maximal effect. Rows are unselected; any-hit rate near 4.7%.

Each structure is followed by: LASV entry inh	Cruzain inh noDet	Cruzain Triton	2A StopGo	NS1 function inh	RE007 growth inh	SARS PLpro yeast	MARV entry inh
- CCc1cccc(C)c1NC(=S)NCc1cccn1C
→ 12%	-7%	-3.8%	-7%	?	5%	-1%	16%
- CC(C#N)(Nc1ccc(Cl)cc1)c1cccnc1 (stereo unspecified)
→ ?	-8%	-3.0%	-6%	18%	2%	-19%	-22%
- CC(=O)OC1CCC(OC(C)=O)c2c1n([O-])c(C)c(C)[n+]2=O (stereo unspecified)
→ 22%	-8%	6.6%	-1%	5%	15%	4%	1%&1%
- CCOC(=O)N1CCC(NC(=O)C2CCN(C(=O)N3CC(C)Oc4ccc(C)cc43)CC2)CC1 (stereo unspecified)
→ -14%	?	-1.2%	-26%	-1%	3%	nt	1%&1%
- Cc1cccn2c(=O)c3c(nc12)N1CCC(Cc2ccccc2)CC1C1(C3)C(=O)N(C)C(=O)N(C)C1=O (stereo unspecified)
→ ?	?	-15%	0%	?	-21%	-9%	?
- O=[N+]([O-])c1cccc(NC2=NCCC2)c1
→ -15%	nt	nt	-11%	7%	11%	0%	?
- CCOc1ccc(CCNC(=O)c2cc(C)nc3ccccc23)cc1OCC
→ 24%[46.1 µM]	nt	nt	0%	3%	-9%	0%	12%[46.1 µM]
- Cc1ccc(NC(=O)Nc2nnc(N3CCCC3)s2)c(C)c1
→ 0%[46.1 µM]	-12%	-2.1%	-9%	nt	nt	nt	3%[46.1 µM]
- COc1ccc(NS(=O)(=O)c2ccc3oc(SC(C)C(N)=O)nc3c2)cc1 (stereo unspecified)
→ ?	nt	nt	-23%	9%	13%	0%	?
- NC(=O)C1CCN(C(=O)COc2ccc3c4c(c(=O)oc3c2)CCC4)CC1
→ nt	nt	nt	-2%	13%	6%	-1%	nt
- CCOC(=O)C1CCN(CCC(=O)Nc2cccc(Cl)c2)CC1
→ 1%	-2%	3.4%	-20%	-8%	7%	-1%	-12%
- COc1cccc(Cc2n[nH]c(=S)n2Cc2ccco2)c1
→ -5%	nt	nt	?	3%	3%	1%	?
- N#CCSc1nc2sccc2c(=O)n1-c1ccccc1
→ -22%	nt	nt	-12%	16%	-14%	2%	2%[46.1 µM]
- Cc1cc(NC(=O)COC(=O)c2oc3c(Cl)cccc3c2C)no1
→ -27%	13µM*	4.1%	-4%	-18%	-18%	-5%	5%
- COC(=O)c1scc(-c2ccc(C)cc2)c1S(=O)(=O)Nc1ccc(OC(F)(F)F)cc1
→ 3%[46.1 µM]	7%	-7.1%	-2%	nt	nt	nt	nt
- Cc1ccc2c(CC(=O)Nc3ccc(S(=O)(=O)N4CCCCC4C)cc3)coc2c1C (stereo unspecified)
→ ?	?	-5.6%	-6%	nt	nt	nt	-18%[46.1 µM]
- C=CCNc1nc(C2(C)CC3(CC(C)(C)OC3=O)C(=O)O2)cs1 (stereo unspecified)
→ 0%	-6%	-3.1%	-21%	-6%	-2%	-1%	-12%
- COc1cc(/C=C/C(=O)OCC(=O)N2CCC(C)CC2)ccc1O
→ 12%	nt	nt	-4%	nt	-13%	nt	12%
- O=c1[nH]c(=O)n(C(c2ccccc2)(c2ccccc2)c2ccccc2)cc1N(CCO)CCO
→ -4%[46.1 µM]	nt	nt	-23%	nt	1%	nt	-13%
- COc1ccc(/C(C)=N/NC(=O)c2ccc(CSc3cccc4cccnc34)cc2)cc1OC
→ 14%	-25%	-0.7%	-5%	19%	2%	-22%	?
- Cc1cc(N)ccc1NC(=O)CN1CCOCC1
→ 6%[46.1 µM]	nt	nt	-13%	-7%	11%	-1%	7%[46.1 µM]
- CCn1cc(Cl)c(C(=O)Nc2ccc3c(c2)OCCO3)n1
→ ?	nt	nt	-17%	nt	11%	-3%	10µM*
- O=C(NCc1ccc(Cl)cc1)c1ccccc1Oc1ccccc1
→ 0%	2%	-8.3%	0%	-12%	-2%	-26%	-12%
- CC(C)CC(=O)n1nc(-c2cccnc2)nc1NCc1ccc(F)cc1
→ -2%[46.1 µM]	17%	-7.6%	-5%	nt	nt	nt	1%[46.1 µM]
- COc1ccc(C)cc1S(=O)(=O)NC(C)C(=O)NC1CC1 (stereo unspecified)
→ 18%[46.1 µM]	nt	nt	-1%	1%	9%	7%	6%[46.1 µM]
- O=C(NCCCN1CCOCC1)c1ccc(Br)s1
→ 0%	-9%	6.3%	12%	1%	-11%	2%	21%
- CCC(Cc1ccccc1)NC(=O)c1csc2c1CCCCC2 (stereo unspecified)
→ nt	23%	0.0%	15%	nt	nt	nt	-11%[46.1 µM]
- O=[N+]([O-])/C(Cl)=C(/NCCO)C(Cl)=C(Cl)Cl
→ -7%	nt	nt	-16%	nt	6%	nt	9%
- Cc1cccc(C)c1OCC(=O)N(Cc1ccco1)Cc1ccco1
→ ?	0%	-5.6%	-7%	nt	nt	nt	-22%[46.1 µM]
- COCCN(C(=O)COC(=O)CCCOc1ccc(OC)cc1)c1c(N)n(Cc2ccccc2)c(=O)[nH]c1=O
→ -3%	nt	nt	-5%	nt	-2%	7%	-1%

Given as labelled records: entries from further up.
CCOC(=O)N1CCC(NC(=O)C2CCN(C(=O)N3CC(C)Oc4ccc(C)cc43)CC2)CC1 (stereo unspecified)
- LASV entry inh: -14%
- Cruzain inh noDet: ?
- Cruzain Triton: -1.2%
- 2A StopGo: -26%
- NS1 function inh: -1%
- RE007 growth inh: 3%
- SARS PLpro yeast: nt
- MARV entry inh: 1%&1%
O=[N+]([O-])c1cccc(NC2=NCCC2)c1
- LASV entry inh: -15%
- Cruzain inh noDet: nt
- Cruzain Triton: nt
- 2A StopGo: -11%
- NS1 function inh: 7%
- RE007 growth inh: 11%
- SARS PLpro yeast: 0%
- MARV entry inh: ?

Record cards, from the list above.
O=[N+]([O-])c1cccc(NC2=NCCC2)c1 reads LASV entry inh = -15%; Cruzain inh noDet = nt; Cruzain Triton = nt; 2A StopGo = -11%; NS1 function inh = 7%; RE007 growth inh = 11%; SARS PLpro yeast = 0%; MARV entry inh = ?
COc1ccc(/C(C)=N/NC(=O)c2ccc(CSc3cccc4cccnc34)cc2)cc1OC reads LASV entry inh = 14%; Cruzain inh noDet = -25%; Cruzain Triton = -0.7%; 2A StopGo = -5%; NS1 function inh = 19%; RE007 growth inh = 2%; SARS PLpro yeast = -22%; MARV entry inh = ?

Additional entries follow.
Each structure is followed by: LASV entry inh	Cruzain inh noDet	Cruzain Triton	2A StopGo	NS1 function inh	RE007 growth inh	SARS PLpro yeast	MARV entry inh
- CCc1nnc(NC(=O)CCC(=O)N2CCN(C3c4ccccc4-c4ccccc43)CC2)s1
→ -1%	?	-6.8%	-15%	6%	-19%	17%	-11%
- Cn1c(C2=C(O)CN(c3ccccc3)C2=N)nc2ccccc21
→ nt	nt	nt	12%	nt	-3%	2%	15%[46.1 µM]
- CCn1cc(C(=O)NCc2ccc(C)cc2)c(=O)c2cc(S(=O)(=O)N3CCC(C)CC3)ccc21
→ 16%[46.1 µM]	1%	1.8%	-8%	nt	nt	nt	2%[46.1 µM]
- CC(=NCCN1CCCCC1)c1c(O)n(-c2ccc(Cl)cc2)c(=O)[nH]c1=O
→ 5%	1%	3.8%	-14%	-1%	-12%	3%	2%
- O=[N+]([O-])c1cc([N+](=O)[O-])c(Oc2c(F)cc(F)cc2F)cc1NN1CCCCC1
→ nt	nt	nt	-13%	9%	-8%	9%	nt
- O=C(COC(=O)C1CC2C=CC1C2)Nc1cccc(S(=O)(=O)N2CCOCC2)c1 (stereo unspecified)
→ 10%	nt	nt	4%	-9%	-23%	-1%	11%[46.1 µM]
- O=C(COc1ccc(C(=S)N2CCCC2)cc1)Nc1ccccc1C(F)(F)F
→ ?	nt	nt	0%	-24%	2%	12%	16%
- Cn1ncc2c(Nc3ccc(O)cc3)nc(Cl)nc21
→ -29%	nt	nt	-4%	1%	3%	1%	?
- COc1ccc(-n2c(=O)[nH]c3c(C(N)=O)nc(C4CCCCC4)nc32)cc1
→ nt	nt	nt	-24%	-3%	8%	0%	nt
- CC(=O)C(C)n1c(CN2CCN(C(=O)c3ccco3)CC2)nc2c1c(=O)n(C)c(=O)n2C (stereo unspecified)
→ nt	nt	nt	-6%	-1%	18%	-1%	nt
- Nc1nnnn1CC(=O)N/N=C/c1cccs1
→ nt	nt	nt	24%	-1%	6%	0%	nt
- Oc1ccc(Cc2ccc(Cl)cc2)c(O)c1
→ -3%[46.1 µM]	nt	nt	-16%	-2%	-14%	4%	-3%[46.1 µM]
- CN1CCN(/N=C/c2ccc(C#N)cc2)CC1
→ 9%	nt	nt	35%[activator]	-2%	3%	4%	9%[46.1 µM]
- Cc1ccc(-n2nc(C)c(C(=O)NCCCN3CCN(c4cccc(Cl)c4)CC3)c2-n2cccc2)cc1
→ ?	14%	-7.0%	?	nt	nt	nt	nt
- CCCCN(CCCC)C(=O)/C=C/c1cccc([N+](=O)[O-])c1
→ -12%	0%	-6.5%	?	-28%	-8%	-14%	-16%
- CCOc1ccc(Nc2nc3cc(Cl)c(Cl)cc3nc2-n2nc(C)cc2C)cc1
→ 5%[46.1 µM]	4%	-0.4%	-17%	nt	nt	nt	-3%[46.1 µM]
- COc1cccc(/C=N/NC(=O)c2cnccn2)c1
→ ?	4%	-2.6%	40%[activator]	-8%	10%	2%	?
- Cn1c(SCC(=O)NC2CCCCC2)nnc1-c1cc2cc(Cl)ccc2o1
→ 2%	?	2.6%	26%	-1%	-1%	?	10%
- COc1cccc(-c2nn(C)c3sc(C(=O)NCc4ccc5c(c4)OCO5)cc23)c1
→ nt	?	-3.2%	-17%	8%	11%	-1%	0%
- CNC(=O)c1sccc1-n1cccc1
→ -19%	-1%	2.5%	0%	-6%	-1%	2%	2%

Screens deposited in PubChem BioAssay by National Center for Advancing Translational Sciences (NCATS).
